YjeE inh: YjeE (TsaE) inhibition, E. coli. P0AF67. purified YjeE, fluorescence polarisation of a bound ADP probe. Potency, µM. 71,000 compounds, 0.05% hits. AID 605; active = well fitted falling curve; inconclusive = weaker or top-dose-only fall, or a rising curve; inactive = flat or poorly fitted curve;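 note: top concentration of the series not given in the record; excess ADP was the control for the full effect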
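Purified YjeE (10 uM) with BODIPY Texas Red-labeled ADP probe (2 uM); compounds pin-transferred, 15 min at room temperature. Binding inhibition read as decreased fluorescence polarization; ADP titration as control.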
PK Bst: pyruvate kinase (B. stearothermophilus) modulation; partly purified Bacillus stearothermophilus pyruvate kinase, luminescence ATP production; ribose 5-phosphate activator present at AC10; Potency, µM; 51,000 compounds, 1.2% hits; AID 361; in the data active means potency below about 11 µM; inconclusive means mostly about 12 µM to 25 µM; inactive means weaker than that;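 the screen sought inhibitors and activators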;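 note: potency is the fitted concentration of half-maximal effect; scaled between full activation by ribose 5 phosphate and full inhibition by luteolin; about four in five hits inhibit and the cells do not say which; series up to 57 µM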
An asterisk follows results filed as active; i = inactive; ? = inconclusive; . = no result given.

The line under a structure holds: YjeE inh, PK Bst
#1 CN(C)CCN1C(=O)C(=O)/C(=C(/O)c2ccc(OCc3ccccc3)cc2)C1c1ccncc1 (configuration not stated)
  i, >57
#2 Cc1cc(Nc2cc(C(=O)O)ccc2C)n2ncnc2n1
  i, .
#3 COc1ccc(-n2c(Cc3cccn3C)nnc2SCC(=O)Nc2ccc(C)cc2)cc1
  i, .
#4 COc1ccc(C(=O)N2CCC[C@@]3(CCN(Cc4ccccc4)C3)C2)cc1
  i, .
#5 O[C@@H]([C@H](O)[C@@H](O)CBr)[C@@H](O)CBr
  i, .
#6 COc1ccc(C(=O)Nn2cnc3scc(-c4cccs4)c3c2=O)c(O)c1
  i, >57
#7 O=C(c1cccc(F)c1)N1CCC[C@@]2(CCN(c3ccccn3)C2)C1
  i, .
#8 CCOc1cc2[nH]c(=S)n(CCCOC)c(=O)c2cc1OCC
  i, >57
#9 O=C1CC(c2cccc(Cl)c2)Cc2nc(N3CCOCC3)ncc21 (configuration not stated)
  i, >57
#10 CC(=O)OCc1ccc2c(c1)OCO2
  i, .
#11 C=CCn1cc(C(=O)NCCCOC)c(=O)c2cc(S(=O)(=O)N3CCC(C)CC3)ccc21
  i, .
#12 O=C(CN1CCN(Cc2ccc(F)cc2)C1=O)NCc1cccs1
  i, .
#13 O=C(Oc1cccc2cccnc12)c1ccc2c(c1)OCCO2
  i, 10*
#14 Cc1ccccc1-c1nc(CN2CCC(C(=O)NCc3cccnc3)CC2)c(C)o1
  i, >57
#15 COc1cc(NS(=O)(=O)c2ccc(NC(=O)NC3CCCCC3)cc2)nc(OC)n1
  i, >57
#16 Cc1ccc(Nc2nnns2)cc1C
  i, >57
#17 O=C(O)c1cc(S(=O)(=O)Nc2ccccc2C(=O)O)ccc1O
  i, .
#18 COc1ccc(-c2nc3ccccc3c(=O)n2CCN2CCOCC2)cc1
  i, >57
#19 Cc1cc(C(F)(F)F)nn1CC(=O)NCC1CCCO1 (configuration not stated)
  ., >26
#20 Cc1c(C(=O)NCc2ccccc2)oc2c1C(=O)CCC2
  i, >57
#21 COc1ccc(Cl)cc1N(CC(=O)N1CCC(C)CC1)S(C)(=O)=O
  i, .
#22 Cc1ccc(NC(=O)c2ccccc2C(=O)O)cc1C
  i, .
#23 CC1(C)OC(=O)C(=CNC(Cc2c[nH]c3ccccc23)C(=O)O)C(=O)O1 (configuration not stated)
  i, >57
#24 Cc1cc(C)nc(N(C#N)S(=O)(=O)c2ccccc2)n1
  i, >57
#25 CCOC(=O)c1c(CN2CCCCC2)oc2ccc(OC)cc12
  ., >26
#26 COc1ccc(C2CC(C(F)(F)F)n3nc(C(=O)NCc4c(C)nn(C)c4C)c(Cl)c3N2)cc1 (configuration not stated)
  i, >57
#27 O=S(=O)(c1ccccc1)N1CCC2(CCCN(Cc3nccs3)C2)CC1
  i, .
#28 O=C(c1ccc2c(c1)OCO2)N1CCNc2ccccc2C1
  i, >57
#29 COCCNc1ccnc(-c2ccccc2C)n1
  i, .
#30 CCCC(=O)N(Cc1cc2ccccc2[nH]c1=O)c1ccccc1OC
  ., >26

Among those listed so far, these have a COOH group.
The line under a structure holds: YjeE inh, PK Bst
#2 Cc1cc(Nc2cc(C(=O)O)ccc2C)n2ncnc2n1
  i, .
#17 O=C(O)c1cc(S(=O)(=O)Nc2ccccc2C(=O)O)ccc1O
  i, .
#22 Cc1ccc(NC(=O)c2ccccc2C(=O)O)cc1C
  i, .
#23 CC1(C)OC(=O)C(=CNC(Cc2c[nH]c3ccccc23)C(=O)O)C(=O)O1 (configuration not stated)
  i, >57

Further compounds:
The line under a structure holds: YjeE inh, PK Bst
#31 CCn1ncc(C(=O)Nc2ccc(S(=O)(=O)N3CCCC3)cc2)c1C
  i, >57
#32 COCCCn1c(-c2ccc(OC)cc2)nc2nc3ccccc3nc21
  i, >57
#33 O=S(=O)(/N=C(/Nc1cc(N2CCOCC2)ncn1)c1ccc(F)cc1)c1ccccc1
  i, >57
#34 O=C(CC1SC(=Nc2ccccc2)N(CCCO)C1=O)Nc1ccc(Cl)cc1 (configuration not stated)
  i, >57
#35 COc1cc(C2C(C(=O)c3ccco3)=C(O)C(=O)N2c2cc(C)on2)cc(Br)c1O (configuration not stated)
  i, >57
#36 COc1ccc(C2=CSC3=NCCN23)cc1F
  i, >57
#37 COC(=O)c1ccc(N2C(=O)CC(N(C)Cc3ccccc3)C2=O)cc1 (configuration not stated)
  i, .
#38 COCCn1cnc2c1c(=O)n(CC(=O)c1ccc3c(c1)OCCO3)c(=O)n2Cc1ccccc1
  i, >57
#39 COc1ccc(C)cc1NC(=O)CN(c1ccccc1F)S(C)(=O)=O
  i, .
#40 O=C(CCCNS(=O)(=O)c1cccc2nsnc12)NCc1ccccc1
  i, >57
#41 COC(=O)c1ccc(NC(=O)C2CC(=O)N(c3cc(C)ccc3C)C2)cc1 (configuration not stated)
  i, >57
#42 COc1cc(NC(=O)Cn2nnc(-c3ccccc3N)n2)cc(OC)c1
  i, >57
#43 O=C(c1csnn1)N1CCC[C@@]2(CCN(c3ncccn3)C2)C1
  i, .
#44 Oc1ccccc1-c1nc(NCC2CCCO2)c2ccccc2n1 (configuration not stated)
  i, .
#45 COc1cc(N/C(=N/S(=O)(=O)c2ccccc2)c2ccccc2)ncn1
  i, >57
#46 CCOCCn1c(CCCO)nc2ccccc21
  i, >57
#47 CCOC(=O)c1c(NC(=O)c2nn(CC)cc2Br)c(C#N)nn1-c1ccccc1
  i, >57
#48 Cn1c(SCc2ccccc2Cl)nnc1-c1cnccn1
  i, >57
#49 O=C(NCc1ccccn1)C1CCCN(S(=O)(=O)c2ccc(Br)cc2)C1 (configuration not stated)
  i, .
#50 Cc1ccc(N(CC(=O)NC2CCC(C)CC2)S(=O)(=O)c2cccnc2)cc1 (configuration not stated)
  i, .
#51 O=C(O)CCC(=O)c1cccc2ccccc12
  i, >57
#52 Cc1ccc(S(=O)(=O)N2CCCC2C(=O)Oc2ccccc2)cc1 (configuration not stated)
  i, .
#53 CCOc1cc(NC(=O)c2ccco2)c(OCC)cc1NC(=O)COc1ccccc1
  i, >57
#54 CCn1c(CNc2cccc(Cl)c2)nnc1SCc1ccccc1
  i, >57
#55 CCCCn1c(CNC(C)=O)nc2ccccc21
  i, .
#56 Cc1cc(S(=O)(=O)N2CCCC2)c(C)s1
  i, >57
#57 Cc1nc2cc(NC(=O)N3CC4(C)CC3CC(C)(C)C4)ccc2n1C (configuration not stated)
  i, >57
#58 Cc1sc(NC(=O)c2ccco2)c(CN2CCCCC2)c1C
  i, >57
#59 Clc1ccc(-c2nnc(-c3ccc(Br)o3)o2)c(Cl)c1
  i, .
#60 Cc1cc(C)c(S(=O)(=O)NCC2CCC(C(=O)NCCCN3CCOCC3)CC2)c(C)c1 (configuration not stated)
  i, .

Values in list order from the list:
YjeE inh, entries 32–38 → i, i, i, i, i, i, i
PK Bst, entries 32–38 → >57, >57, >57, >57, >57, ., >57

The list goes on.
The line under a structure holds: YjeE inh, PK Bst
#61 Cc1ccc(-c2nc(CSCC(=O)N3CCCC3)c(C)o2)cc1
  i, >57
#62 O=C(Cc1ccccc1)Nc1c(C(=O)N2CCOCC2)cnn1-c1ccccc1
  i, .
#63 CNC(=O)CCn1nc(-c2ccc(Cl)cc2)c2ccccc2c1=O
  i, >57
#64 Cc1n[nH]c(C)c1S(=O)(=O)N1CCCC(C(=O)NCC2COc3ccccc3O2)C1 (configuration not stated)
  i, >57
#65 O=C(COc1ccc(Br)cc1)OCc1nnc(-c2ccccc2)o1
  i, >57
#66 Cc1cc(NC(=O)CSc2nnc(COc3ccccc3)o2)no1
  i, >57
#67 O=C(c1ccco1)N1CCN(Cc2ccc(Cl)cc2)CC1
  i, .
#68 O=C(N1CCCCC1)N1CCN(C(=O)N(c2ccccc2)c2ccccc2)CC1
  i, >57
#69 CN1CCN(c2ccc(NC(=O)c3ccccc3Br)cc2)CC1
  i, >57
#70 Cc1noc(C)c1COC(=O)CCc1nc2ccccc2s1
  i, >57
#71 COc1ccc(C(=O)Nc2c(N)nc(SCC(=O)N3CCCCCC3)[nH]c2=O)cc1OC
  i, .
#72 CSCC[C@H](NC(=O)Nc1ccc(C)cc1)C(=O)O
  i, >57
#73 Cn1c(C(=O)NCC2CCCO2)cc2c(=O)n3ccccc3nc21 (configuration not stated)
  i, i
#74 CCC1SC2=NCN(c3ccccc3)CN2C1=O (configuration not stated)
  i, >57
#75 COc1cc(NC(=O)c2ccc(-c3ccc(Br)cc3)o2)ccc1NC(=O)C(C)C
  i, >57
#76 O=C(Nc1cccc(-c2nnc(-c3ccccc3)o2)c1)c1ccc(Br)o1
  i, ?
#77 CCOc1ccc(C(=O)C2CCN(CC(=O)Nc3ccccc3N3CCOCC3)CC2)cc1
  i, >57
#78 Cn1c(=O)c2ncn(CC(=O)NCCC3=CCCCC3)c2n(C)c1=O
  i, >57
#79 C=CCn1c(=N)c(C(=O)OC)cc2c(=O)n3cccc(C)c3nc21
  i, >57
#80 CCCC(c1nnnn1CCOC)N1CCN(c2cccc(OC)c2)CC1 (configuration not stated)
  i, >57
#81 CC(C)Nc1nnc(SCC(=O)Nc2ccc(F)cc2)s1
  i, >57
#82 O=C(c1ccncc1)N(Cc1cc2ccccc2[nH]c1=O)C1CCCCC1
  i, >57
#83 CC(C)c1nnc(SCc2ccc(CSc3nnc(C(C)C)n3N)cc2)n1N
  i, >57
#84 CC1CCCCC1NC(=O)C1Cc2ccccc2CN1S(C)(=O)=O (configuration not stated)
  i, >57
#85 NC(=O)OCC(COC(N)=O)c1ccccc1
  i, >26
#86 N#CC1=C2SCN(c3ccccc3)CN2C(=O)CC1c1c(Cl)cccc1Cl (configuration not stated)
  i, .
#87 Cn1c(N)c(N=Nc2ccc(S(N)(=O)=O)cc2)c(=O)n(C)c1=O
  i, .
#88 CCOC(=O)C1CCCN(C(=O)c2ccccc2NC(C)=O)C1 (configuration not stated)
  i, >57
#89 COc1ccc(C2CC(=O)C=C(NCC3CCCO3)C2)cc1 (configuration not stated)
  i, .
#90 C1=CC2CC1CC2CNCc1ccco1 (configuration not stated)
  i, >57
#91 O=c1[nH]c(-c2ccccc2O)nc2c1CCCC2
  i, >57
#92 COc1ccccc1-c1nc(C#N)c(NCc2ccc(F)cc2)o1
  i, >57
#93 CCOc1cccc(C(=O)Nc2cc(-c3nn4c(C)nnc4s3)ccc2C)c1
  i, .
#94 Cc1ccc(-c2nnc(SCC(=O)N3CCCC3)o2)cc1C
  i, >11
#95 Cc1cc(C(=O)Oc2ccccc2C(=O)O)c(C)o1
  i, >57
#96 COC(=O)CCCCCN1C(=O)NC(c2ccccc2)C(C(=O)OCc2ccccc2)=C1C (configuration not stated)
  i, .
#97 CCn1cc(C(=O)NCc2ccc(C)o2)c2cc(OC)c(OC)cc2c1=O
  i, >57
#98 CCCC(=O)N1CCN(c2ccc(NC(=O)c3ccco3)cc2)CC1
  i, >57
#99 COc1ccc(NC(=O)CNS(=O)(=O)c2ccccc2)cc1Cl
  i, >57
#100 CCC(=O)c1ccc(OCCSc2ncccn2)cc1
  i, >57
#101 CSC1=NCCN1C(=O)COc1ccccc1
  i, .
#102 NC(=O)[C@@H]1CCCN1Cc1ccc2c(c1)OCO2
  i, .
#103 CCOC(=O)c1ccc(NC(=O)CNC(=O)C2CCCCC2)cc1
  i, .
#104 CCn1c(=O)c2cc(S(=O)(=O)NCCOc3ccccc3)ccc2n(CC)c1=O
  i, >57
#105 Cc1cc(NC(=O)c2sc(Nc3cccc(C(F)(F)F)c3)nc2N)no1
  i, .
#106 Cn1cc(-c2nc3cncnc3n(-c3ccccc3)c2=O)c2ccccc21
  i, .
#107 CS(=O)(=O)Nc1cccc(-c2ccc3ncnc(NCc4cccnc4)c3c2)c1
  i, .
#108 COCCOC(=O)C1=C(C)NC2=C(C(=O)CC(c3cccs3)C2)C1c1ccsc1 (configuration not stated)
  i, >57
#109 C=CCSc1nc2ccccc2[nH]1
  i, >57
#110 CC(=O)Oc1cc(C(C)C)c(OCCN(C)C)cc1C
  i, >26
#111 COc1ccc(C2c3c(oc4c(C)cc(C)cc4c3=O)C(=O)N2Cc2cccnc2)cc1OC (configuration not stated)
  i, >57
#112 CC1CC(C)CN(CC(=O)N2CCc3[nH]c4ccccc4c3C2)C1 (configuration not stated)
  i, >57
#113 CCn1c(=S)sc2nc(C)sc21
  i, >57
#114 COC(=O)c1ccccc1NC(=O)Nc1cccnc1
  i, >57
#115 Cc1ccc(CCNC(=O)C2CCN(c3nn4c(=O)cc(C)nc4s3)CC2)cc1
  i, >57
#116 CNc1nc(NC)nc(-n2c(C(F)(F)F)nc3ccccc32)n1
  i, .
#117 CNC(=O)c1ccc2snnc2c1
  i, .
#118 CCc1c(C)nc2[nH]nc(NC(=O)C(F)(F)F)n2c1=O
  i, >57
#119 Cc1ccc2c(c1)c1c(n2CC(O)Cn2c(C)nc3ccccc32)/C(=N\O)CCC1 (configuration not stated)
  i, >57
#120 O=C(CCn1c(=O)sc2ccccc21)NCCC1=CCCCC1
  i, >57

Part of the list above, set out differently:
No. | Molecule | YjeE inh | PK Bst
91 | O=c1[nH]c(-c2ccccc2O)nc2c1CCCC2 | i | >57
92 | COc1ccccc1-c1nc(C#N)c(NCc2ccc(F)cc2)o1 | i | >57
93 | CCOc1cccc(C(=O)Nc2cc(-c3nn4c(C)nnc4s3)ccc2C)c1 | i | .

Next part.
The line under a structure holds: YjeE inh, PK Bst
#121 CCOc1ccc(-c2nc(C#N)c(NCC(C)C)o2)cc1
  ., >26
#122 Cc1ccnc(N2C(=O)c3ccccc3C2Nc2ccccc2Cl)c1 (configuration not stated)
  i, .
#123 Cc1cc(C)cc(O)c1
  i, .
#124 Cc1ccc2c(c1)N(CCCC(=O)NCc1ccc3c(c1)OCO3)C(=O)CO2
  i, .
#125 COc1cc(N)ccc1NC(=O)c1cccs1
  i, >57
#126 COc1cccc(Nc2ncc3nc(-c4ccc(Cl)cc4)c(=O)n(CCC#N)c3n2)c1
  i, .

These rows are one share of the data (hit frequency here may not be typical).
